CDC25B CDK2 inh – human CDC25B-CDK2/CyclinA binding inhibition. HTRF CDC25B-CDK2/CyclinA binding, anti-His/anti-Flag; hits give high values. 94,000 tested, 0.72% active. P30305+P24941. z-score (test concentration not listed);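 further: score is relative to mean and SD of negative controls; strong numbers were not always called active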
TAR Tat displ – HIV-1 TAR-Tat binding disruption; HIV-1 TAR RNA, Tat peptide displacement FRET; hits give high values; z-score (test concentration not listed); 100,000 tested, 0.6% active; AID 1259389;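 further: score is relative to mean and SD of negative controls; some compounds called inactive have numbers as strong as hits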
* marks the source's active call; other numbers are inactive results; · = not tested or not shown.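 How the source made its calls: active means z-score from 3 up in half or more of its runs; inactive means the rest.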

SMILES | CDC25B CDK2 inh | TAR Tat displ
O=C(CC(CC(=O)c1ccc(F)cc1)c1ccco1)c1ccc(F)cc1 | -1.2 | ·
CCC(C)(C)NC(=O)Nc1ccc(C)c(NC(=O)NC(C)(C)CC)c1 | -2.5 | ·
O=C(CN1CCSc2ccccc21)N1CCN(c2ccc(F)cc2)CC1 | · | 1.4
CC1=C(C(=O)N(CC(=O)NC2CCCc3ccccc32)c2ccc(Cl)cc2)SCCO1 (configuration not stated) | · | 1.2
O=C(Nc1ccc(-n2nncc2-c2ccccc2)cc1)c1cnc2n(c1=O)CCS2 | · | 0.42
Clc1ccc(-c2noc3ncnc(NCCN4CCCCC4)c23)cc1 | · | 1.8
CC1=C(c2ccc(C)c(C)c2)S(=O)(=O)N=C1Nc1ccc(C)c(C)c1 | -0.97 | 0.47
CCCCN(C)C(=O)Cn1ncc2c3ccccc3n(C)c2c1=O | -0.7 | 1
Cc1ccc(C)c2[nH]c(=O)c(CCNC(=O)CCC3CCCCC3)cc12 | 0.49 | ·
CCCCSc1nc2n(n1)C(c1ccc(OC)cc1)C(C(=O)OCC)=C(C)N2 (configuration not stated) | -1.6 | 0.18
O=C(c1cc2cc3ccc(Cl)cc3nc2o1)N1CCCCCC1 | -2.2 | ·
Cc1ccc2c(c1)-c1onc(C(=O)N3CCN(C(=O)c4ccco4)CC3)c1CO2 | · | 1.4
Cc1ccc(Nc2ncnc3onc(C)c23)cc1 | · | -0.15
CC(C)c1ccc(-c2nn3c(=O)c(NC(=O)c4ccccc4)cnc3o2)cc1 | · | 0.52
CCN1CCN(S(=O)(=O)c2ccc3c(c2)OCC(C(=O)N2CCCCC2)O3)CC1 (configuration not stated) | · | 1.6
Cc1ccc(-c2csc(CO)n2)cc1 | -1.3 | ·
CSc1sc(-c2ccnc(SCC(=O)c3ccc(Cl)cc3)n2)c2c1C(=O)CCC2 | -2.1 | ·
Nc1nnc(CC(=O)N2CCCC2)o1 | -2 | 1.5
COc1ccc(C=C2C(=O)NC(=S)NC2=O)cc1OC(=O)c1cccc2ccccc12 | -0.43 | ·
O=C(c1noc2c1CCc1sccc1-2)N1CCN(c2ccc(F)cc2)CC1 | · | 1.6
COc1ccc(-n2nnc(-c3nc(-c4ccccc4)no3)c2N)cc1OC | · | 0.58
CCCCNc1nc2c(S(=O)(=O)c3ccc(C)cc3)nnn2c2ccsc12 | · | -1.1
Cn1c(=O)c2c(-c3ccccc3Br)n(CCO)cc2n(C)c1=O | -0.98 | 2.1
COc1ccc(-c2noc(CSc3nnc(-c4ccncc4)n3-c3ccc(F)cc3)n2)c(OC)c1 | -1.2 | -0.39
CC(=O)Nc1ccc(NC2SC(=O)N(c3ccccc3)C2=O)cc1 (configuration not stated) | 0.11 | ·
SMILES | CDC25B CDK2 inh | TAR Tat displ
CSc1nnc2c(n1)OC(c1ccccc1F)N(C(C)=O)c1ccccc1-2 (configuration not stated) | -0.2 | 1.3
O=C(Nc1c[nH]c(=O)[nH]c1=O)NC1CCCC1 | -0.98 | -1.2
Cc1noc(/C=C/c2ccco2)c1S(=O)(=O)N1CCC(C(=O)N2CCCC(C)C2)CC1 (configuration not stated) | -0.62 | -5
Cc1cc(C)n(-c2nnc(N3CCN(c4ccccn4)CC3)c3ccccc23)n1 | -0.83 | 3
O=C(C1CCC(Cn2c(=S)[nH]c3ccccc3c2=O)CC1)N1CCCC1 (configuration not stated) | -1.4 | ·
S=c1[nH]nc(CSCCOc2ccccc2)o1 | -0.95 | ·
O=C(O)c1cnc[nH]1 | 3.9* | ·
N#CC1(c2ccc(Cl)cc2)CCCCC1 | -0.93 | ·
O=C(C1CC1)N(c1cccc(Cl)c1)C1C=CS(=O)(=O)C1 (configuration not stated) | -3.2 | -0.26
CC(C)Cc1cc(-c2cccc(Br)c2)c(C#N)c(N)n1 | -2 | 0.14
O=C(Cc1ccc(F)cc1)N1CCN(c2nc3cc(Br)ccc3n3cccc23)CC1 | -2.7 | 2.5
CCC(C(=O)O)n1cnc2ccccc21 (configuration not stated) | -0.04 | -0.32
COC(=O)c1conc1C(C)(C)C | -0.31 | ·
Cc1cc(C)c(NS(=O)(=O)c2ccc(-c3cc(C)no3)s2)c(C)c1 | · | 0.47
Cc1cc(F)ccc1NS(=O)(=O)c1ccc2c(c1)CC(C)N2C(=O)C1CCC1 (configuration not stated) | · | -0.43
C=C1C(=O)O[C@@H]2C[C@@]3(C)CCC[C@H](C)C3=C[C@H]12 | · | 0.37
COc1cccc(-c2nc3ncccn3c2NCc2ccc(F)cc2)c1 | · | -1.1
C/C(=C\c1ccco1)C1C(C#N)=C(N)Oc2n[nH]c(-c3ccccc3)c21 (configuration not stated) | -0.43 | -1.6
O=C(CCS(=O)(=O)c1cccc2nsnc12)NCc1ccccn1 | -0.5 | -0.7
O=C(COc1ccc(Cl)cc1)OCc1cc(=O)n2nc(C3CCCCC3)sc2n1 | · | -1
O=C(NCCN1CCN(c2ccccc2)CC1)Nc1ccc(Cl)cc1 | -0.38 | 0.34
FC(F)(F)c1c2c(nc3cc(C4CC4)nn13)-c1ccccc1CC2 | -0.66 | ·
COC(=O)C(Cc1c[nH]c2ccccc12)NC(=O)c1cccs1 (configuration not stated) | 1.7 | ·
Cc1ccc(-c2cn3nc(C4CC4)sc3n2)c(C)c1 | -0.52 | 1.1
COc1cc(C2NC(=O)N(C)C(C)=C2C(=O)OCc2ccccc2)cc(Br)c1O (configuration not stated) | -0.31 | ·
SMILES | CDC25B CDK2 inh | TAR Tat displ
CCOC(=O)c1cc([N+](=O)[O-])[nH]n1 | -2.5 | -0.06
CCOc1ccc(-c2nc(-c3ccc(C)nc3OC)no2)cc1 | -0.33 | -0.29
Cc1ccc(CSc2nc3c(c(=O)[nH]2)C(c2ccc(O)c(O)c2)CC(=O)N3)cc1 (configuration not stated) | 0.11 | 12*
O=C(Nc1ccc(F)cc1F)c1cc2c(s1)-c1ccccc1OC2 | 0.71 | -0.1
O=C(c1cccs1)N(Cc1cccnc1)Cc1ccc(Cl)cc1Cl | -0.93 | ·
Cc1c(C(=O)N2CCOCC2)oc2c1-c1nn(CC(=O)NC3CCCc4ccccc43)cc1CC2 (configuration not stated) | · | 3
COC(=O)C1=C(C)Nc2nc3ccccc3n2C1c1ccc(C(C)C)cc1 (configuration not stated) | -1.5 | 1.9
Cc1ccc(S(=O)(=O)N2CCC(c3nc(-c4ccc(Cl)cc4)no3)CC2)cc1 | -1.3 | 1.1
c1ccc(-c2cc3ccccc3[nH]2)cc1 | -0.71 | 1
N=C1C(c2nc3ccccc3s2)=C(O)CN1Cc1cccnc1 | -0.15 | 1.4
CC1CCCC(NC(=O)C2CCN(c3nnc(N4CCCC4=O)s3)CC2)C1C (configuration not stated) | 1.7 | -0.44
CCOCCOC(=O)c1cnn2c(C(F)(F)F)cc(-c3ccc(C)cc3)nc12 | -0.86 | 2.6
CCC(=O)OCc1cc(=O)n2nc(C(C)C)sc2n1 | · | 0.89
Cn1ncc2c(=O)n(Cc3cccc(F)c3)cnc21 | -0.39 | -2.4
Cc1nn(-c2ccccc2)c(-n2cccc2)c1C(=O)Nc1ccc2c(c1)OCCO2 | -0.96 | 1.6
Cc1ccc(Nc2c(-c3cccs3)nc3ncccn23)c(C)c1 | -2 | 0.7
COc1ccccc1C(O)(c1ccc(O)cc1)C(CN1CCOCC1)c1ccccc1 (configuration not stated) | -2.5 | 0.16
CN1CCN(C(=O)C2=CC(c3ccco3)=NS(=O)(=O)N2C)CC1 | -2 | 0.26
O=C(CSc1nc2c(c(=O)[nH]1)CCCC2)Nc1ccc(Cl)cc1 | -2.5 | 0.59
CCCC(CCC)C(=O)Nc1nnc2n1CCS2 | · | 1.3
Cc1ccc(C(=O)NC2CCCC2)cc1NC(=O)C1=CSCCO1 | · | 2.4
CCc1nc(-c2csc(S(=O)(=O)N3CCC(C(=O)N4CCc5ccccc54)CC3)c2)no1 | · | 2.3
Cc1ccc(-n2c(=O)[nH]c3c(C(N)=O)nc(-c4ccc(F)cc4F)nc32)cc1C | · | 1.7
CCOC(=O)c1sc2cccc(F)c2c1S(=O)(=O)Nc1cccc(F)c1 | · | -0.69
CNS(=O)(=O)c1ccc2nc(NS(=O)(=O)c3ccc(Br)cc3)sc2c1 | · | 0.85
SMILES | CDC25B CDK2 inh | TAR Tat displ
Cc1ccc(Cc2nnc(-c3cccc(N)c3)o2)cc1 | · | 1
Cn1c(=O)c2c(nc(N3CCOCC3)n2Cc2ccc(F)cc2)n(C)c1=O | -0.19 | ·
O=C(c1cc(-c2cccs2)[nH]n1)N1CCN(c2ccccn2)CC1 | · | -3.2
O=C(c1ccc2c(=O)n3c(nc2c1)CCCCC3)N1CCCC1 | -0.46 | ·
O=C(Nc1cccnc1N1CCOCC1)c1cccs1 | -2.2 | ·
CCN(CC)c1ccc(NC(=O)c2cn3c4c(ccc(Cl)c4c2=O)OC(C)C3)c(C)c1 (configuration not stated) | · | 3.1
COC(=O)c1sccc1NC(=O)c1ccc2nonc2c1 | -0.42 | ·
CCC(C)NC(=O)Cn1c(=O)c2cccn2c2ccc(F)cc21 (configuration not stated) | · | 1.9
COCCCN(CCS(=O)(=O)N1CCNCC1)S(=O)(=O)c1ccc(C)cc1 | · | 3.3
Cc1ccc(Cl)cc1-n1nnc(-c2nc(-c3ccccc3F)no2)c1C | · | 1.2
C/C=C(/C)C(=O)O[C@H]1CC(C)=CC(=O)[C@@]2(C)CC[C@@](O)(C(C)C)[C@H]12 | · | 2.2
O=C(Oc1ccccc1N1CCOCC1)c1ccco1 | -1.8 | ·
CC1CCC2(OC1)OC1CC3C4CCC5C[C@@H](O)CCC5(C)C4=CCC3(C)C1[C@@H]2C (some centres not stated) | · | 2.5
CCCN1CCN(C(=O)c2sc3nc4n(c(=O)c3c2C)CCCCC4)CC1 | · | 2.3
CC(=O)c1c(C)[nH]c(C(=O)Nc2nc(C)cs2)c1C | -0.97 | ·
COc1cc(C(=O)Nc2cc(C(F)(F)F)ccc2Cl)cc(OC)c1OC | -2.2 | ·
CCCc1nc(SC)ncc1C(=O)O | · | 1.1
CC1(C)NC(=O)N(Cc2ccccc2)C1=O | -1 | 2.7
O=C(O[C@@H]1Cc2c(O)cc(O)cc2O[C@@H]1c1cc(O)c(O)c(O)c1-c1c([C@H]2Oc3cc(O)cc(O)c3C[C@H]2O)cc(O)c(O)c1O)c1cc(O)c(O)c(O)c1 | · | 4.7*
CCOC(=O)c1sc(=S)n(-c2ccc(F)cc2F)c1N | · | 2.8
Cc1cc(Cl)ccc1Nc1nc(N2CCCC2)nc2c1cnn2C | · | 1.4
O=C1CCCC(=O)C1C1c2ccccc2Sc2ccccc21 | -0.83 | ·
Cc1nc(N2CCCC2)cc(N2CCN(S(=O)(=O)c3ccc(C)c(C)c3)CC2)n1 | -0.34 | -0.15
O=C(Nc1ccc(Br)cc1F)N1CCSc2ccccc21 | · | -0.15
Cc1nnc2c3c(-c4ccccc4)csc3ncn12 | -0.5 | 1.1

As a working copy, some entries already given.
SMILES | CDC25B CDK2 inh | TAR Tat displ
Cc1ccc(Cc2nnc(-c3cccc(N)c3)o2)cc1 | · | 1
Cn1c(=O)c2c(nc(N3CCOCC3)n2Cc2ccc(F)cc2)n(C)c1=O | -0.19 | ·
O=C(c1cc(-c2cccs2)[nH]n1)N1CCN(c2ccccn2)CC1 | · | -3.2
O=C(c1ccc2c(=O)n3c(nc2c1)CCCCC3)N1CCCC1 | -0.46 | ·
O=C(Nc1cccnc1N1CCOCC1)c1cccs1 | -2.2 | ·
CCN(CC)c1ccc(NC(=O)c2cn3c4c(ccc(Cl)c4c2=O)OC(C)C3)c(C)c1 (configuration not stated) | · | 3.1
COC(=O)c1sccc1NC(=O)c1ccc2nonc2c1 | -0.42 | ·

Next section.
SMILES | CDC25B CDK2 inh | TAR Tat displ
CC1(C)C2=CC3(C)N(CC(=O)N2c2ccccc21)c1ccccc1C3(C)C (configuration not stated) | -1.9 | ·
N#Cc1cc(NC(=O)c2ccc(F)cc2)c(=O)n2c1sc1ccccc12 | -1.3 | -1
Cc1occc1-c1nnc(SC(C)C(=O)N2CCc3ccccc32)o1 (configuration not stated) | 1.3 | 0.24
CC(=O)C1C(c2cccc(C)c2)NC(=O)NC1(O)C(F)(F)F (configuration not stated) | 0.52 | ·
Cn1nc(C(=O)NC2CC2)c2c1-c1ccccc1S(=O)(=O)C2 | -1.2 | 1.5
CCOC(=O)c1c(NC(=O)c2noc(C(C)C)c2[N+](=O)[O-])sc(C)c1C | -0.69 | 0.26
Cn1ccnc1SCc1ccc([N+](=O)[O-])cc1 | -2.1 | ·
O=C(Nc1ccccc1)c1c2c(nc3ccccc13)C(=O)N(C1CCCCC1)C2 | · | 0.02
c1coc(CNc2nc(Nc3ccc4c(c3)OCO4)nc(N3CCOCC3)n2)c1 | -1.6 | ·
O=C(NCCc1cccs1)c1cnc2sc3c(n2c1=O)CCCC3 | · | 0.5
Cc1cc(C)n(-c2nc(C)c(C(=O)N3CCN(CCO)CC3)s2)n1 | -0.91 | -0.29
CCOC(=O)C1CCN(C(=O)c2cnn3c(C)cc(C)nc23)CC1 | -1.8 | ·
O=C(Cn1nc(C(F)(F)F)c2c1CCC2)Nc1ccc(Cl)cc1 | 0.75 | 3.4
CN1CCN(c2nc(N(C)C)nc3c2cnn3C)CC1 | · | 1.4
CCS(=O)(=O)N1CCC2(CC1)OC(=O)C(C)=C2C(=O)NCCC(C)C | · | 0.69
COc1ccc(NC(=O)c2nccnc2C(=O)O)c(N2CCOCC2)n1 | -2.7 | ·
COC(=O)c1ccc(OC)c(CN2C(=O)N(c3cccc(SC)c3)C3CS(=O)(=O)CC32)c1 (configuration not stated) | -2.9 | -0.57

Complete entries as entered above. Order of screens: CDC25B CDK2 inh	TAR Tat displ
CC1(C)C2=CC3(C)N(CC(=O)N2c2ccccc21)c1ccccc1C3(C)C (configuration not stated) reads -1.9	·
CCOC(=O)c1c(NC(=O)c2noc(C(C)C)c2[N+](=O)[O-])sc(C)c1C reads -0.69	0.26
CN1CCN(c2nc(N(C)C)nc3c2cnn3C)CC1 reads ·	1.4
O=C(Cn1nc(C(F)(F)F)c2c1CCC2)Nc1ccc(Cl)cc1 reads 0.75	3.4
Cn1nc(C(=O)NC2CC2)c2c1-c1ccccc1S(=O)(=O)C2 reads -1.2	1.5
